Screens from PubChem.
AID504770: growth inhibitors of E. coli YBA685 in a screen for V. cholerae RctB (chromosome II replication) inhibitors. z-score (no concentration beside the values). E. coli YBA685 rctB-dependent plasmid, OD600 growth, 3 h; stronger effect = lower value. 130,000 compounds, 0.27% hits;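 active means z-score under -2 on both plates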;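 further: wells of about 30 µL received 100 nL stock; score is relative to mean and SD of the test wells; the first replicate is given; strong numbers were not always called active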
CapD inh: inhibitors of Bacillus anthracis CapD enzyme; purified CapD enzyme, fluorescence intensity read-out; stronger effect = lower value; some hits fall short of the stated cut; z-score (no concentration beside the values); 140,000 compounds, 0.23% hits;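 active means z-score under -4 in either of two replicates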;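 further: stock transfer was 100 nL into about 40 µL; score is relative to mean and spread of the plate; one replicate is shown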
* marks the source's active call; other numbers are inactive results. The list is partial (hit frequency here may not be typical).

Cc1cccc(CSc2nc3ccncc3n2CC(=O)N2CCCC2)c1 was read as AID504770 1.9 and CapD inh 0.53.
`O=C(c1cc(-c2ccc(F)cc2)nc2ccccc12)N1CCOCC1` gave AID504770 0.3 and CapD inh 4.17.
NNc1ncccc1C(=O)O was read as AID504770 1.55.
O=C1NC(=O)C2C1Sc1[nH]c(=O)sc1C2c1ccco1 (stereo not drawn) was read as AID504770 0.45 and CapD inh -4.13*.
O=C(O)CCCC(=O)Nc1nc2nccc(-c3ccccc3)n2n1 was read as AID504770 0.6 and CapD inh 16.4.
`Cc1ccnc(SCc2cc(=O)n3[nH]c(C)nc3n2)n1` gave AID504770 0.7 and CapD inh -0.19.
Screening O=C(Nc1ccc2oc(-c3ccccc3)nc2c1)c1ccccc1 returned AID504770 0 and CapD inh 8.22.
CO/N=C(/CNC(=O)c1ccc(Cl)cc1Cl)c1ccc(Cl)cc1 was read as CapD inh -0.385.
Screening Fc1ccc(-c2csc(N3CCN(C/C=C\c4ccccc4)CC3)n2)cc1 returned AID504770 -0.6 and CapD inh -0.1.
Screening O=C(Oc1ccc(OC(=O)c2ccncc2)cc1)c1ccncc1 returned AID504770 -0.7 and CapD inh 0.655.
`Cc1ccc(-c2nc3ncccc3o2)cc1N` gave AID504770 0.15 and CapD inh 3.33.
For Cc1ccc2[nH]c3c(c2c1)CCCC3O (stereo not drawn) the results were AID504770 -0.8 and CapD inh 0.55.
For CC1(c2ccc3noc(-c4ccccc4)c3c2)OCCO1 the results were AID504770 0.25 and CapD inh -0.565.
COc1ccc2oc(C(=O)N(C)Cc3ccc(Br)s3)c(C)c2c1 was read as AID504770 -0.15.
For COc1ccc(NC(=O)CSc2ccc(Br)cc2)cc1 the results were CapD inh 0.27.

The list goes on; it opens with the 2 that closed the last part.
COc1ccc2oc(C(=O)N(C)Cc3ccc(Br)s3)c(C)c2c1 was read as AID504770 -0.15.
For COc1ccc(NC(=O)CSc2ccc(Br)cc2)cc1 the results were CapD inh 0.27.
`Cc1ccc(CC/C=N/N=C2\NC(=O)CS2)o1` gave AID504770 0.1.
For CCCCC1(C(=O)OCC)CC(C)(c2csc(N)n2)OC1=O (stereo not drawn) the results were AID504770 -0.4 and CapD inh 0.555.
`Cc1ccc(Nc2[nH]c(=O)c3ccccc3c2C(=O)c2ccncc2)cc1` gave AID504770 -0.4 and CapD inh -0.225.
For OCCOc1ccc(C2=NCCO2)cc1 the results were AID504770 0.35 and CapD inh -0.125.
For CC(=O)Nc1sc(N)nc1-c1ccccc1 the results were AID504770 -0.75 and CapD inh -0.335.
Screening CCn1c(=O)c(=O)[nH]c2cc(C(=O)N3CCN(c4ccccc4F)CC3)ccc21 returned AID504770 1.55.
For O=C(O)Cc1csc2ccc(Cl)cc12 the results were AID504770 0.2 and CapD inh 1.01.
For CC(=O)c1sc(SCCS(=O)(=O)c2ccccc2)c2c1CC(C)(C)CC2=O the results were CapD inh -0.69.
For CC(=O)NC(C(=O)O)C1CCCC1 (stereo not drawn) the results were AID504770 0.25.
Screening O=C1[C@@H]2CSC(c3ccc(F)cc3)N2C(=O)N1c1ccccc1 (stereo partly drawn) returned AID504770 0.6 and CapD inh 0.67.
For CC(C)(C)c1cc2nc3c(c(=O)n2[nH]1)CN(Cc1ccccc1)C3=O the results were AID504770 -0.35 and CapD inh 3.71.
Screening COc1ccc(-c2[nH]ncc2-c2cnc3ccccc3n2)cc1 returned CapD inh 1.77.
Screening COc1cc(C(C)n2ccnc2)cc(Br)c1O (stereo not drawn) returned AID504770 -0.45.
O=C1N(c2ccccc2)C(c2ccc(Br)cc2)C12CCCCC2 (stereo not drawn) was read as AID504770 -0.7 and CapD inh -0.35.
Screening Cc1nc(N2CCN(C)CC2)c2c(C)c(C(=O)Nc3ccc(F)cc3)sc2n1 returned CapD inh -0.97.
For CC(=O)NC(CC(=O)Nc1nc2ccccc2[nH]1)c1ccccc1 (stereo not drawn) the results were AID504770 -1.
O=C(c1ccccc1-c1ccccc1)N1CCOCC1 was read as AID504770 -0.45 and CapD inh 0.485.
Screening Cc1c(N=Cc2ccc(O)c(O)c2)c(=O)n(-c2ccccc2)n1C returned CapD inh -0.745.
Screening CCC(C)(C)C1CCc2oc3c(cc(NS(=O)(=O)c4cccc([N+](=O)[O-])c4)c4ccccc43)c2C1 (stereo not drawn) returned CapD inh -0.04.
For O=C(CN1C(=O)c2ccccc2S1(=O)=O)NC1=NN(c2ccccc2)C(=O)C1 the results were AID504770 2.1.
N#Cc1nc(-c2ccc(Cl)cc2)oc1NCc1ccco1 was read as AID504770 0.6 and CapD inh 69.7.
CC(C)CC(N=Cc1c(O)c2ccccc2oc1=O)C(=O)O (stereo not drawn) was read as AID504770 -0.8 and CapD inh -0.81.
O=C(COC(=O)C1CC(O)CN1C(=O)Oc1ccccc1)c1ccc(-c2ccccc2)cc1 (stereo not drawn) was read as AID504770 -0.05 and CapD inh 0.285.
O=C(COc1ccccc1F)OCc1cccc(C(F)(F)F)c1 was read as AID504770 -0.05.
For COc1ccc2nccc(C(=O)O)c2c1 the results were CapD inh 0.51.
Screening Cc1cc(/C=N/NC(N)=O)c(C)c(CO)c1 returned AID504770 -1.4 and CapD inh -0.155.
For COC(=O)C1=C(NC(=O)CCCCl)CCS1 the results were AID504770 0.2 and CapD inh inactive.
For COc1ccc(Cn2c(SCc3cccc(C(F)(F)F)c3)nc3ccncc32)cc1 the results were AID504770 -0.5 and CapD inh 53.3.
Screening CCOC(=O)c1ccc(-n2cnnn2)cc1 returned AID504770 0.7 and CapD inh 0.235.
Screening COc1ccc(/C=C2\SC(=O)N(CCC(=O)N3CCN(C)CC3)C2=O)cc1 returned AID504770 1.15.
`COc1ccc(-n2cnnc2SCC(=O)N(Cc2ccccc2)C(C)C)cc1` gave AID504770 0.75.
O=C(Nc1cccnc1)c1ccc(NC(=O)C2OCCc3ccccc32)cc1 (stereo not drawn) was read as AID504770 -0.85 and CapD inh -0.805.
Screening O=C(O)CCC(=O)N1CCc2cc(F)ccc21 returned CapD inh 0.17.
Cc1ccc(NC(=O)CN2C(=O)c3ccccc3S/C2=C\C#N)cc1C was read as AID504770 -0.45.
CC(=O)NC1C(=O)N(CCc2ccccc2)c2ccc(C)cc21 (stereo not drawn) was read as AID504770 0.
Screening CCOc1ccc2c(c1)sc(=NC(=O)CCOc1ccccc1)n2C returned AID504770 -1 and CapD inh 0.035.
Screening Cn1c(=O)c(=O)n(C)c2c3nsnc3ccc21 returned AID504770 0.95 and CapD inh -1.01.
COc1ccc(C(=O)Cn2c(=O)c(CCC(=O)O)nn3c4ccccc4nc23)cc1OC was read as AID504770 -1.7 and CapD inh -0.285.
For CC1CCCCN1C(=O)Cn1cc(C#N)c2ccccc21 (stereo not drawn) the results were AID504770 0.05.
For CCN(CC)CCCn1c(SC(C(=O)NCc2ccccc2)C(=O)NCc2ccccc2)nc2ccccc2c1=O the results were CapD inh 2.66.
Screening Cc1nc2c(C(=O)NC(C)C)cnn2c(C)c1Cc1c(F)cccc1Cl returned AID504770 -0.15 and CapD inh 0.18.
Screening CCCNC(=O)CCC1CCCCC1 returned AID504770 -0.55.
`CSc1ccccc1NC(=O)c1nn2c(c1Br)NC(c1ccc(Br)cc1)CC2C(F)(F)F` (stereo not drawn) gave CapD inh -0.04.
For Cc1nonc1-c1csc(N)n1 the results were AID504770 -1.35 and CapD inh -0.16.
COc1cccc(N2CCN(C(=O)c3ccc(/C=C4\Oc5ccccc5N(C)C4=O)cc3)CC2)c1 was read as AID504770 -0.25 and CapD inh 2.37.
Screening Clc1ccc(-c2cc(C3CCNCC3)[nH]n2)cc1 returned AID504770 -0.8 and CapD inh -0.54.
COc1cc(C#N)c(OC)cc1Cl was read as CapD inh 0.425.
COc1ccc(CCCc2nnc(SCC(=O)Nc3ccccc3)o2)cc1C was read as AID504770 0.3 and CapD inh 0.14.
`O=C(CCN1CCCCC1)c1ccccc1` gave AID504770 0.
Screening CCCn1c(=S)[nH]c2cc(C(=O)NCc3ccccc3)ccc2c1=O returned AID504770 0.05 and CapD inh -0.785.
`CN(C)/C=N/NC(=O)c1nc(-c2cccc(-n3cccc3)c2)no1` gave AID504770 0.4 and CapD inh -0.205.
`COc1ccc(NC(C)=O)c([N+](=O)[O-])c1` gave CapD inh -0.6.
`Cc1ccc(/C=C2\SC(=S)N(CCC(=O)Nc3ccc(S(=O)(=O)Nc4nccs4)cc3)C2=O)cc1` gave CapD inh -1.
COc1ccc(NC(=O)c2cncc(NS(=O)(=O)c3ccc(F)cc3)c2)cc1 was read as AID504770 -0.85.
`Cc1ccc2nc(Cn3c(=O)c(N4CCOCC4)nc4ccccc43)cc(=O)n2c1` gave AID504770 0.85.
`COc1cccc(N2CCN(CC(=O)NCC(F)(F)F)CC2)c1` gave AID504770 0.
Cc1ccccc1C1NC(=S)NC2=C1C(=O)CC(C)(C)C2 (stereo not drawn) was read as AID504770 -0.3.
For Cc1cc(NC(=O)CSc2nc3c(sc(=S)n3Cc3ccco3)c(=O)n2-c2ccccc2)no1 the results were CapD inh -1.09.
`CC1CN(Cn2[nH]c(=O)ccc2=O)CC(C)O1` (stereo not drawn) gave AID504770 1.95.
Screening CSc1nc2ccc(NC(=O)c3c(-c4ccccc4)noc3C)cc2s1 returned CapD inh -0.325.
For Cc1cc(F)ccc1S(=O)(=O)N(CC(=O)N1CCOCC1)CC(=O)N1CCOCC1 the results were AID504770 -0.45.
Screening COC(=O)c1ccc2c(=O)n3nc(NCCc4ccccc4)sc3nc2c1 returned AID504770 -0.9 and CapD inh 1.25.
Screening CC(C)CNC(=O)c1cccc(NC(=O)C(C)C)c1 returned AID504770 -0.45.
CSc1sc(C#N)c(C)c1-c1ccn(S(=O)(=O)c2ccc(Cl)cc2)n1 was read as CapD inh 0.04.
For CC(=O)Nc1ccc(NC(=O)C(C)OC(=O)c2cc(-c3ccco3)nc3ccccc23)cc1 (stereo not drawn) the results were AID504770 0.2.
Screening O=C(c1ccc(Cl)cc1)c1oc2ccccc2c1-c1cnn(-c2ccccc2)c1 returned AID504770 2.05 and CapD inh -0.9.
`O=C(Nc1ccccc1-c1ccccc1)C1CCCO1` (stereo not drawn) gave AID504770 0.05 and CapD inh 0.655.
Screening CC(=O)Nc1ccc(S(=O)(=O)N2CCC(c3nc(-c4cccs4)no3)CC2)cc1 returned CapD inh -0.235.
For Cn1c(SCc2ccc(F)cc2)nc2ccc(C(=O)NCCc3ccc(Cl)cc3)cc21 the results were AID504770 0.9 and CapD inh 20.9.
`O=C(Cn1c2ccccc2c2cn[nH]c(=O)c21)NC1CCCC1` gave AID504770 -0.3 and CapD inh 3.88.
CCCNC(=O)CSc1nnc(-c2cccnc2)n1C1CCCCC1 was read as AID504770 1.95.
CCOC(=O)c1sc2ccc(NC(C)=O)cc2c1C was read as AID504770 0.05 and CapD inh 0.925.
`CCN1CCn2c1nc(N1CCCCC1)nc2=O` gave AID504770 -0.55 and CapD inh -1.49.
Screening CCOc1ccc(N2C(=O)CC(NCCNC(=O)c3ccc(Cl)cc3)C2=O)cc1 (stereo not drawn) returned AID504770 0.85.
`COc1ccc(Cn2c(=O)c(=O)oc3ccccc32)cc1OC` gave AID504770 0.1.

Copied from above (13 entries):
Screening CC(C)CNC(=O)c1cccc(NC(=O)C(C)C)c1 returned AID504770 -0.45.
CSc1sc(C#N)c(C)c1-c1ccn(S(=O)(=O)c2ccc(Cl)cc2)n1 was read as CapD inh 0.04.
For CC(=O)Nc1ccc(NC(=O)C(C)OC(=O)c2cc(-c3ccco3)nc3ccccc23)cc1 (stereo not drawn) the results were AID504770 0.2.
Screening O=C(c1ccc(Cl)cc1)c1oc2ccccc2c1-c1cnn(-c2ccccc2)c1 returned AID504770 2.05 and CapD inh -0.9.
`O=C(Nc1ccccc1-c1ccccc1)C1CCCO1` (stereo not drawn) gave AID504770 0.05 and CapD inh 0.655.
Screening CC(=O)Nc1ccc(S(=O)(=O)N2CCC(c3nc(-c4cccs4)no3)CC2)cc1 returned CapD inh -0.235.
For Cn1c(SCc2ccc(F)cc2)nc2ccc(C(=O)NCCc3ccc(Cl)cc3)cc21 the results were AID504770 0.9 and CapD inh 20.9.
`O=C(Cn1c2ccccc2c2cn[nH]c(=O)c21)NC1CCCC1` gave AID504770 -0.3 and CapD inh 3.88.
CCCNC(=O)CSc1nnc(-c2cccnc2)n1C1CCCCC1 was read as AID504770 1.95.
CCOC(=O)c1sc2ccc(NC(C)=O)cc2c1C was read as AID504770 0.05 and CapD inh 0.925.
`CCN1CCn2c1nc(N1CCCCC1)nc2=O` gave AID504770 -0.55 and CapD inh -1.49.
Screening CCOc1ccc(N2C(=O)CC(NCCNC(=O)c3ccc(Cl)cc3)C2=O)cc1 (stereo not drawn) returned AID504770 0.85.
`COc1ccc(Cn2c(=O)c(=O)oc3ccccc32)cc1OC` gave AID504770 0.1.

Continuation:
`Cc1cccc(C)c1Nc1nc2c(C)cc(C)c(C)c2s1` gave AID504770 0 and CapD inh 0.73.
`Cc1cnc2c(c1SCC(=O)N1CCC(C)CC1)c(=O)n(C)c(=O)n2C` gave AID504770 -0.6.
`COCCN1C(=O)/C(=C2/C(=O)N(OC)c3ccccc32)SC1=S` gave AID504770 -0.65 and CapD inh -2.59.
CCOC(=O)c1[nH]c(C)c(CC)c1C was read as CapD inh 0.45.
Screening CCN(CC)CCCN1C(=O)C(O)=C(C(=O)c2ccc(C)o2)C1c1cccnc1 (stereo not drawn) returned AID504770 -0.75 and CapD inh -0.015.
Screening CC(=O)Nc1ccc(N2CCN(C(=O)c3ccco3)CC2)cc1 returned AID504770 1.2 and CapD inh -0.09.
`CC1=Nc2cc(C(=O)O)ccc2Sc2c(C)ccc(C)c21` gave AID504770 -0.5 and CapD inh -2.23.
Screening O=C(O)CC1(CC(=O)Nc2cccc3nonc23)CCCCC1 returned AID504770 -0.25 and CapD inh -1.17.
For N#CCSc1nc2c(sc(=S)n2Cc2ccco2)c(=O)n1-c1ccc(F)cc1 the results were CapD inh -1.02.
`O=c1c2c(nc3nc(NCc4c(F)cccc4Cl)[nH]n13)CCC2` gave AID504770 2.2 and CapD inh -0.17.
